Source: PubChem BioAssay (ICCB-Longwood Screening Facility, Harvard Medical School)
Polio RdRp inh – poliovirus RNA polymerase inhibition; P03300; poliovirus polymerase elongation, fluorescence polarization; hits give low values; % elongation, % (compound at 16.7 µg/mL); 0.66% of 150,000 active; in the data active = % elongation below about 90%; also: some results filed as inactive read as strong as hits
Target sequence (P03300 1749-2209 limits assumed): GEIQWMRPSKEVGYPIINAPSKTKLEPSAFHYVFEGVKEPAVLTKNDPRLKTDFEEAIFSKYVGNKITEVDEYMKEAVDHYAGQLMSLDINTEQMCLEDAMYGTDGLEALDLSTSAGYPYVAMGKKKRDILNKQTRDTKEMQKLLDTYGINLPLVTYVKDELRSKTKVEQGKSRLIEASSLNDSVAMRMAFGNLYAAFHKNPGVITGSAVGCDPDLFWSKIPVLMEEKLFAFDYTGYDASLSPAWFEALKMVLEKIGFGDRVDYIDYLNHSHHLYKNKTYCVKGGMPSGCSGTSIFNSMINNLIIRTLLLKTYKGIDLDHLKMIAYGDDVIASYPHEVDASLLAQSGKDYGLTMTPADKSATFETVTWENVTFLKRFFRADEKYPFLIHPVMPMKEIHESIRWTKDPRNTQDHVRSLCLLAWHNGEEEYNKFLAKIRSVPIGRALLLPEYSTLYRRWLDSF
MbtI inh – MbtI salicylate synthase inhibition; P9WFX0; purified MbtI enzyme, fluorescence intensity read-out; inhibition, %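 (about 17 µg/mL by stock and volumes)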; 0.89% of 100,000 active; AID 493033;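 active = above 50% in both replicates, above 80% if mildly self-fluorescent; inactive = the rest, strongly fluorescent compounds included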;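 also: 0% = mean of negative and 100% = mean of positive controls; one replicate is shown; some compounds called inactive have numbers as strong as hits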
Target sequence (P9WFX0 whole entry, looked up): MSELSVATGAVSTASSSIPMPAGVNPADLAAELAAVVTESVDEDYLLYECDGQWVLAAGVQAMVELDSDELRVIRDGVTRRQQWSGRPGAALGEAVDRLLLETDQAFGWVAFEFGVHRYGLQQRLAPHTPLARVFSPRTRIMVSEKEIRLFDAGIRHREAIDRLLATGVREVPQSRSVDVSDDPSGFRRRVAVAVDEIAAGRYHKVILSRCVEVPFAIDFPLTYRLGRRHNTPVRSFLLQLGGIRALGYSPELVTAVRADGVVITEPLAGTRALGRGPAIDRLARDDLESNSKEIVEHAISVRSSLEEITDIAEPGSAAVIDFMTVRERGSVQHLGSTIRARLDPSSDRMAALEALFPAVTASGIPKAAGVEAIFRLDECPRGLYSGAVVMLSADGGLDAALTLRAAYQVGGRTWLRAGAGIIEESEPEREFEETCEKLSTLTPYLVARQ
MenB inh – inhibitors of Mycobacterium tuberculosis MenB enzyme; P9WNP5; inhibition, %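 (about 12 µg/mL by stock and volumes)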; 0.43% of 100,000 active; AID 540299; MenB enzyme assay, absorbance read-out; some hits fall short of the stated cut;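 active = mean of two replicates above 30%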;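 also: 0% = no compound and 100% = wells with inactive enzyme; the first replicate is given; strong numbers were not always called active; inactives centre near -10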
Polio RdRp inh intensity – recorded beside Polio RdRp inh, whose call it bears; % elongation; measured here: total intensity read-out; formula for this scale not given here;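 total fluorescence in place of polarization; lower means less elongation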
An asterisk follows results filed as active; i = inactive; . = no result given; & = joins results of further samples.

Start of the listing, in advance, 20 compounds:
item	Molecule	Polio RdRp inh	Polio RdRp inh intensity	MbtI inh	MenB inh
1	COCCn1c(=O)[nH]c2cc(C(=O)NCc3ccc(OC(F)(F)F)cc3)ccc21	103	102	8	-34
2	Cc1cnc(C(=O)Nc2ccc(S(=O)(=O)N(C)C)cc2)cn1	101	104	4	0
3	CCn1ccc(C(=O)Oc2ccc(C(C)C)cc2)n1	101	102	-2	-31
4	COc1cc(OC)cc(-n2c(=O)c3sccc3n(CC(=O)c3ccc(Cl)cc3)c2=O)c1	101	104	-4	-4
5	CCCC(Nc1ccccn1)n1nnc2ccccc21 (configuration not stated)	105	104	65	-18
6	COc1ccc(Cl)cc1S(=O)(=O)Nc1ccc2c(c1)COC2=O	105	106	-2	9
7	COC(=O)C1C(=O)C=C(Nc2ccc(F)cc2)CC1c1ccccc1 (configuration not stated)	102	104	.	-15
8	CCC1=[N+](CC(=O)c2ccccc2)CCn2cccc21	103	106	i	22
9	CSc1nc2ccc(S(=O)(=O)Nc3ccccc3C)cc2s1	100	98	2	-7
10	CC1C(=O)NN=C1C(=O)N/N=C\c1cccnc1 (configuration not stated)	99	101	37	35*
11	CC(C)C(NS(=O)(=O)c1cccs1)C(=O)NC1CCCCCC1 (configuration not stated)	103	107	-11	5
12	O=C(O)C1CCN(S(=O)(=O)c2cccc3nsnc23)CC1	101&100	103&100	0&11	-12&12
13	COc1ccc(NC(=O)C2(N(Cc3ccccc3)C(=O)Cc3nc(N)n[nH]3)CCCCC2)cc1	101	106	.	-8
14	CCOC(=O)c1cnn2c1nc(Sc1ccc(C)cc1)c1ccccc12	106	114	66	3
15	Cc1cc(C)c2c(=O)c(C#N)coc2c1	103	96	-20	-20
16	Cc1cc(=O)[nH]c(NNS(=O)(=O)c2ccc3ccccc3c2)n1	104	107	12	1
17	CCCn1c(N)c(C(=O)COC(=O)c2ccc(C)c(NC(=O)c3ccco3)c2)c(=O)[nH]c1=O	104	105	-5	-11
18	CC(=O)NCc1cc2cc(Cl)ccc2n1C	101	106	9	-24
19	COCCNC(=O)C1CC(c2c(F)cccc2Cl)=NO1 (configuration not stated)	104	104	-5	-8
20	CCC(=O)Nc1ccc(C(=O)N(CC)C2CCCCC2)cc1	101	103	-4	-14

This part in full, repeating the preview:
item	Molecule	Polio RdRp inh	Polio RdRp inh intensity	MbtI inh	MenB inh
1	COCCn1c(=O)[nH]c2cc(C(=O)NCc3ccc(OC(F)(F)F)cc3)ccc21	103	102	8	-34
2	Cc1cnc(C(=O)Nc2ccc(S(=O)(=O)N(C)C)cc2)cn1	101	104	4	0
3	CCn1ccc(C(=O)Oc2ccc(C(C)C)cc2)n1	101	102	-2	-31
4	COc1cc(OC)cc(-n2c(=O)c3sccc3n(CC(=O)c3ccc(Cl)cc3)c2=O)c1	101	104	-4	-4
5	CCCC(Nc1ccccn1)n1nnc2ccccc21 (configuration not stated)	105	104	65	-18
6	COc1ccc(Cl)cc1S(=O)(=O)Nc1ccc2c(c1)COC2=O	105	106	-2	9
7	COC(=O)C1C(=O)C=C(Nc2ccc(F)cc2)CC1c1ccccc1 (configuration not stated)	102	104	.	-15
8	CCC1=[N+](CC(=O)c2ccccc2)CCn2cccc21	103	106	i	22
9	CSc1nc2ccc(S(=O)(=O)Nc3ccccc3C)cc2s1	100	98	2	-7
10	CC1C(=O)NN=C1C(=O)N/N=C\c1cccnc1 (configuration not stated)	99	101	37	35*

Continued:
item	Molecule	Polio RdRp inh	Polio RdRp inh intensity	MbtI inh	MenB inh
11	CC(C)C(NS(=O)(=O)c1cccs1)C(=O)NC1CCCCCC1 (configuration not stated)	103	107	-11	5
12	O=C(O)C1CCN(S(=O)(=O)c2cccc3nsnc23)CC1	101&100	103&100	0&11	-12&12
13	COc1ccc(NC(=O)C2(N(Cc3ccccc3)C(=O)Cc3nc(N)n[nH]3)CCCCC2)cc1	101	106	.	-8
14	CCOC(=O)c1cnn2c1nc(Sc1ccc(C)cc1)c1ccccc12	106	114	66	3
15	Cc1cc(C)c2c(=O)c(C#N)coc2c1	103	96	-20	-20
16	Cc1cc(=O)[nH]c(NNS(=O)(=O)c2ccc3ccccc3c2)n1	104	107	12	1
17	CCCn1c(N)c(C(=O)COC(=O)c2ccc(C)c(NC(=O)c3ccco3)c2)c(=O)[nH]c1=O	104	105	-5	-11
18	CC(=O)NCc1cc2cc(Cl)ccc2n1C	101	106	9	-24
19	COCCNC(=O)C1CC(c2c(F)cccc2Cl)=NO1 (configuration not stated)	104	104	-5	-8
20	CCC(=O)Nc1ccc(C(=O)N(CC)C2CCCCC2)cc1	101	103	-4	-14

Next section
item	Molecule	Polio RdRp inh	Polio RdRp inh intensity	MbtI inh	MenB inh
21	O=C(NC(NCc1ccccc1Cl)(C(F)(F)F)C(F)(F)F)c1ccccc1	99	98	1	-18
22	CCn1c(=S)[nH]c2sc3c(c2c1=O)CCC3	101	103	2	-32
23	CCCc1nc2ccccc2n1CC(=O)N(CCC#N)c1ccccc1	103	108	-8	.
24	Cc1ccc(Cn2nnc3c(=O)[nH]c(C4CCN(S(=O)(=O)/C=C/c5ccccc5)CC4)nc32)cc1	99	101	5	-40
25	Cc1noc(NS(=O)(=O)c2ccc(NC(=O)NC(C)(C(F)(F)F)C(F)(F)F)cc2)c1C	104	103	-3	0
26	O=C(COc1ccc(Cl)cc1Cl)Sc1nc2ccccc2o1	99	107	43	-14
27	COc1ccc(NC(=O)C(NC(=O)c2ccccc2NC(=O)c2ccco2)C(C)C)cc1 (configuration not stated)	102	104	14	-43
28	COCC(C)Nc1nc(-c2ccc(Cl)cc2)cs1 (configuration not stated)	101	101	7	.
29	O=C(Nc1ccc(F)cc1)NC1CCCCC1NC(=O)Nc1ccc(F)cc1 (configuration not stated)	100	111	3	9
30	CC1CCC2(CC1)NC(=O)c1ccccc1N2C (configuration not stated)	101	106	-136	2

More records follow:
item	Molecule	Polio RdRp inh	Polio RdRp inh intensity	MbtI inh	MenB inh
31	Cc1ccc2nc(-c3ccc(NC(=S)NC(=O)Cc4ccccc4)cc3O)oc2c1	100	102	-12	-3
32	NC(=O)COC(=O)c1cccc(C(F)(F)F)c1	103	106	-3	3
33	CCOC(=O)c1ccc(/C=N/O)[n+](Cc2ccccc2)c1	102	108	-3	-19
34	c1ccc(-c2nnsc2-c2ncc[nH]2)cc1	106	100	34	1
35	O=C(CSc1ccccc1)Nc1nccs1	101	102	-3	.
36	CC(=O)NCc1ccc(-c2csc(N)n2)o1	102	102	22	-9
37	CC(C)c1ccccc1NC(=O)COc1ccc2ccc(=O)oc2c1	99	96	-183	.
38	O=C(CSc1nnc(COc2ccccc2)n1Cc1ccco1)Nc1ccc2c(c1)OCO2	102	104	7	-10
39	C(=N\n1cnnc1)/c1c[nH]c2ccccc12	99	103	20	4
40	CC1CC(C)CN(c2cnnc3c(Cl)cccc23)C1 (configuration not stated)	102	100	-7	-22

Following part.
item	Molecule	Polio RdRp inh	Polio RdRp inh intensity	MbtI inh	MenB inh
41	O=C(O)c1nsnc1NCCO	99	101	6	3
42	CC(=O)OC[C@H]1O[C@@H](n2cc(Br)c(=O)[nH]c2=O)C[C@@H]1OC(C)=O	104	96	7	16
43	COc1ccc(/C=C/C(=O)Nc2ccccc2)cc1	101	102	13	3
44	Nc1ncnc2nc(Sc3ncnc4ccccc34)[nH]c12	101	105	.	-5
45	CC1CN(CC(=O)NC(c2ccccc2)c2ccccc2)CC(C)O1 (configuration not stated)	107	105	-12	-23
46	Cc1nn(-c2ccccc2)c2sc(C(=O)NCCO)cc12	100	99	112	-1
47	O=C(Cc1ccccc1)NC1CCN(S(=O)(=O)c2cccc(F)c2)CC1	100	102	2	-25
48	Cc1ccc(-c2ccc(=O)n(CC(=O)N3CCCCC3)n2)cc1	103	99	28	5
49	Cc1nnc(SCC(=O)NC2CCCCC2)n(N)c1=O	96	102	5	-1
50	FC(F)(F)C1CCCNC1 (configuration not stated)	106	108	-6	-3

(continued)
item	Molecule	Polio RdRp inh	Polio RdRp inh intensity	MbtI inh	MenB inh
51	O=S(=O)(/N=C(\Nc1ccncc1)c1ccccc1)c1ccccc1	101	104	14	2
52	Cc1cc2cc(C(c3nnnn3Cc3ccco3)N3CCN(C(=O)c4ccco4)CC3)c(=O)[nH]c2cc1C (configuration not stated)	101	103	12	-5
53	O=C(c1cc(N2CCOCC2)c2nc3ccccc3c(=O)n2c1)c1ccccc1O	123	141	-5	-5
54	COc1cccc(NC(=O)COC(=O)c2ccccc2F)c1	100	103	-1	.
55	Cc1nonc1OCCNC(=O)C12CC3CC(CC(C3)C1)C2	102	103	-9	-25
56	Cc1ccc(Cl)cc1NC(=O)CC1NC2CCCCC2NC1=O (configuration not stated)	101	103	-7	0
57	O=c1oc(-c2ccccn2)nc2ccccc12	98	103	.	-20
58	Cc1nn(Cc2ccccc2)c2sc(C(=O)N3CCCC3)cc12	101	106	2	-15
59	CC(C)(C)n1nc2c(c1NC(=O)C1CC1)CSC2	101	101	12	58
60	CC(C)(C)N(N)C(=S)NCc1ccc(F)cc1	86*	92*	90*	-23

4 entries out of the list, sorted by length of the SMILES, descending:
item	Molecule	Polio RdRp inh	Polio RdRp inh intensity	MbtI inh	MenB inh
58	Cc1nn(Cc2ccccc2)c2sc(C(=O)N3CCCC3)cc12	101	106	2	-15
56	Cc1ccc(Cl)cc1NC(=O)CC1NC2CCCCC2NC1=O (configuration not stated)	101	103	-7	0
59	CC(C)(C)n1nc2c(c1NC(=O)C1CC1)CSC2	101	101	12	58
60	CC(C)(C)N(N)C(=S)NCc1ccc(F)cc1	86*	92*	90*	-23

Carrying on:
item	Molecule	Polio RdRp inh	Polio RdRp inh intensity	MbtI inh	MenB inh
61	COc1cc(NC(=O)c2cccs2)c(C(=O)NCCCn2nc(C)cc2C)cc1OC	104	99	15	-21
62	COCCNS(=O)(=O)Cc1ccc(Cl)cc1	103	104	-19	-2
63	CCCCn1nnnc1COC(=O)[C@@H](NS(=O)(=O)c1cccc(Cl)c1)C(C)C	104	102	4	-23
64	CC(C)C[C@H]1C(=O)N2CCC[C@H]2[C@]2(O)O[C@](NC(=O)[C@@H]3C=C4c5cccc6[nH]cc(c56)C[C@H]4N(C)C3)(C(C)C)C(=O)N12	92	123	-400	2
65	Cc1cc(-n2c(C)cc(C(=O)Cn3cc(S(=O)(=O)N(C)C)ccc3=O)c2C)no1	104	99	-2	-19
66	C=CCC1NC(C)(C)Cc2ccccc21 (configuration not stated)	108	116	.	-3
67	COc1ccccc1NC(=O)NCC(c1ccco1)N(C)C (configuration not stated)	98	102	10	6
68	O=C(Cn1cnc2c(nc3n2CCCCC3)c1=O)NCc1ccco1	102	101	-1	-13
69	COc1cccc(-n2c(N)cc(=O)n(Cc3ccccc3)c2=O)c1	102	96	6	-11
70	COc1cc(OC)cc(OC(=O)c2cc(NC(C)=O)cc(NC(C)=O)c2)c1	.	.	-9	-4

Following part
item	Molecule	Polio RdRp inh	Polio RdRp inh intensity	MbtI inh	MenB inh
71	CCN1C(=O)C(O)(C(C)C(=O)c2ccccc2)c2ccccc21 (configuration not stated)	100	101	-3	-19
72	CN1C(=O)C(=Nc2cccc(Br)c2)c2ccccc21	95	93	3	-59
73	CC(C)(C)NC(=O)Cc1ccc(S(=O)(=O)N2CCCC2)s1	117	134	-1	-13
74	CN(C(=O)c1ccccc1O)C1CCCCC1	102	105	-12	13
75	O=S(=O)(CCSc1ccc(C(F)(F)F)cn1)CCSc1ccc(C(F)(F)F)cn1	105	116	-12	4
76	COc1ccc(OC)c(N=Cc2cc(I)cc(C)c2O)c1	107	114	-20	-19
77	CN(C)C(=O)CCc1nc(-c2ccc(C(C)(C)C)cc2)no1	99	103	14	-1
78	O=C(CN1C(=O)/C(=C/c2ccccc2F)Sc2ccccc21)N1CCCC1	103	98	2	-15
79	Cc1cc(C(=O)NCC(C)c2ccccc2)n[nH]1 (configuration not stated)	103	100	-10	-19
80	CCCc1c(C)c(C#N)c2[nH]c3ccccc3n2c1=O	101	103	106	-18

Other entries
item	Molecule	Polio RdRp inh	Polio RdRp inh intensity	MbtI inh	MenB inh
81	C=C1C2(C(=O)Nc3cc(C)on3)CCC(C2)C1(C)C (configuration not stated)	99	110	-13	-4
82	CC(C)N(Cc1nnc(-c2ccccc2)o1)C(=O)c1ccccc1	110	120	-13	3
83	C=CCn1c(SCC(=O)c2ccccc2)nc2c(c1=O)C(C)(C)Cc1ccccc1-2	110	111	.	-16
84	CN(CC(=O)Nc1ccccc1C(=O)NC1CC1)Cc1ccco1	99	106	-6	-14
85	Cc1ccc(Nc2nc(N)nc(CC(=O)CSc3nc4ccccc4s3)n2)cc1	103	107	-146	-22
86	CCn1c(=O)c(=O)[nH]c2cc(C(=O)NC(C)c3ccc(S(N)(=O)=O)cc3)ccc21 (configuration not stated)	101	105	65	-23
87	COc1cc(NCCCC(C)N)c2ncccc2c1 (configuration not stated)	35*	33*	5	-9
88	CC1(C)CC(=O)c2cn3ncnc3nc2C1	102	101	-2	-10
